Ecoli rRNA inh: inhibits bacterial ribosomal RNA function over humanized ribosomes; GFP signal change (wild-type ribosome), % (concentration not given with the values); E. coli WT GFP vs humanized-ribosome RFP mutants, fluorescence, 24 h; hits give low values; DMSO median 0, no signal -100; AID 720706; 350,000 tested, 1.6% active;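 active = significant combined selectivity score with lowered wild-type GFP, culture density cut under 30%, mutant RFP and density less affected; inactive = any of these conditions unmet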; note: one replicate is shown; some compounds called inactive have numbers as strong as hits
Ecoli rRNA inh OD600: also measured in Ecoli rRNA inh; calls as there; OD600 change, %; measured here: OD600 growth;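 optical density of the mix in the first replicate; 0 = DMSO median and -100 = no signal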
Ecoli rRNA inh RFP: recorded beside Ecoli rRNA inh, whose call it bears; RFP signal change, %; measured here: RFP humanized mutant strains;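 first replicate; 0 = DMSO median and -100 = no signal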
The depositor's hits bear a star; & = joins results of further samples. Not all compounds are listed, so the mix of outcomes need not match the whole.

SMILES | Ecoli rRNA inh | Ecoli rRNA inh OD600 | Ecoli rRNA inh RFP
CC(=O)N1[C@@H]2c3ccc(-c4ccccc4)c(=O)n3C[C@@H]2[C@@H](CO)[C@@H]1C(=O)NCc1ccccc1Cl | -1 | 4 | -1.5
C[C@@H]1CN([C@@H](C)CO)C(=O)c2cc(C#CC(C)(C)O)cnc2O[C@@H]1CN(C)C(=O)C1CCCCC1 | 3 | 7 | 0.2
C[C@@H]1CN([C@@H](C)CO)C(=O)c2cc(NS(=O)(=O)c3ccc(F)cc3)ccc2O[C@H]1CN(C)C(=O)Nc1ccc2c(c1)OCO2 | -4 | -9 | -0.7
Cc1noc(C)c1NC(=O)N[C@H]1C=C[C@@H](CC(=O)NCc2ccc(Cl)c(Cl)c2)O[C@@H]1CO | 2 | 2 | -0.5
CCCNC(=O)N1C[C@@H](O)COC[C@@H]2O[C@@H](CC(=O)OC)CC[C@H]21 | 5 | -6 | -0.8
CC(=O)N(C)C[C@H]1Oc2ncc(C#Cc3ccncc3)cc2C(=O)N([C@H](C)CO)C[C@@H]1C | 5 | 18 | 1.3
CN1CCN(C(=O)C[C@H]2CC[C@H]3[C@@H](COC[C@@H](O)CN3C(=O)Nc3ccc(F)cc3)O2)CC1 | 5 | 10 | -1.3
O=C(CC[C@H]1O[C@@H](n2cnc3c(NC(=O)c4ccccc4)ncnc32)[C@H](O)[C@@H]1O)NCc1cccs1 | 14 | 1 | -0.6
C[C@H]1CN([C@@H](C)CO)C(=O)c2cccc(NC(=O)Nc3ccc(F)cc3)c2O[C@H]1CN(C)Cc1ccc(C(=O)O)cc1 | 4 | 7 | -0.7
C/C=C/c1ccc(C2[C@@H]3CN(C(=O)NC4CCCCC4)C[C@H]2N3)cc1 (stereo partly specified) | 4&-1 | -3&-2 | 3.4&-3.8
CN(C)CC(=O)Nc1ccc2c(c1)[C@@H]1C[C@H](CC(=O)N3CCc4ccccc4C3)O[C@@H](CO)[C@@H]1O2 | 2 | -7 | 1.4
CCC(=O)N1C[C@H](C)[C@@H](OC)CN(C)C(=O)c2ccc(NC(=O)C3CCCCC3)cc2OC[C@H]1C | -3 | 1 | -0.7
COc1ccc(-c2ccc(CN3C(C(C)C)C(=O)N(Cc4cn(Cc5ccco5)nn4)CCS3(=O)=O)cc2)cc1 (stereo unspecified) | -3 | 1 | -0.1
CCCCCCCCN | 4 | 6 | -4.3
C[C@H](CO)N1C[C@H](C)[C@H](CN(C)Cc2ccccc2C(=O)O)OCc2cn(nn2)CCCC1=O | 1 | 5 | 1.5
C[C@H]1CN([C@@H](C)CO)C(=O)c2cccc(N(C)C)c2O[C@@H]1CN(C)S(=O)(=O)c1cccs1 | -5 | -7 | 0.0
O=C(c1cccc(F)c1)N1C[C@@H]2[C@H](c3ccccc31)[C@H](CO)N2Cc1cocn1 | 0 | -3 | 0.7
C/C=C/c1ccc2c(c1)O[C@@H](CN(C)C(=O)Cc1ccccc1)[C@@H](C)CN([C@H](C)CO)S2(=O)=O | -6 | -25 | 2.0
Cc1ccc(S(=O)(=O)N(C)C[C@H]2Oc3cc(C4=CCCC4)ccc3S(=O)(=O)N([C@@H](C)CO)C[C@H]2C)cc1 | 5 | 14 | -0.3
C[C@@H]1CN([C@H](C)CO)C(=O)c2cc(NS(=O)(=O)c3ccc(Cl)cc3)ccc2O[C@@H](C)CCCCO[C@H]1CN(C)Cc1ccc2c(c1)OCO2 | 3 | 0 | 3.4
CCC(=O)N1[C@H](CNC(=O)CN(C)C)[C@@H](c2ccc(C3=CCCC3)cc2)[C@@H]1CO | 1 | 2 | 0.8
C[C@H]1CN([C@@H](C)CO)C(=O)c2cccc(NS(=O)(=O)c3ccccc3)c2O[C@H]1CN(C)Cc1ccc(Oc2ccccc2)cc1 | 1 | 0 | 3.3
C[C@H]1CCCCO[C@@H](CN(C)C(=O)Nc2ccc3c(c2)OCO3)[C@@H](C)CN([C@@H](C)CO)C(=O)c2cc(NS(C)(=O)=O)ccc2O1 | -1 | -3 | 1.4
C[C@H]1CN([C@@H](C)CO)C(=O)c2cc(NS(C)(=O)=O)ccc2O[C@H]1CN(C)Cc1ccc(-c2ccccc2)cc1 | -3 | -5 | 5.6
COc1ccccc1NC(=O)N[C@@H]1C=C[C@@H](CC(=O)N[C@@H](C)c2ccccc2)O[C@@H]1CO | -3 | -3 | 1.4
Cc1noc(C)c1NC(=O)N(C)C[C@H]1OCc2ccccc2-c2c(n(C)c3ccccc23)C(=O)N([C@H](C)CO)C[C@@H]1C | 0 | 3 | -2.5
C[C@H]1CN([C@@H](C)CO)C(=O)c2cccc(NC(=O)C3CCCCC3)c2O[C@@H]1CN(C)Cc1ccc(Cl)c(Cl)c1 | -1 | -2 | 0.5
Cc1cc(C(=O)Nc2cccc3c2O[C@H](CN(C)C(=O)Nc2ccc4c(c2)OCO4)[C@@H](C)CN([C@H](C)CO)C3=O)n(C)n1 | 2 | 15 | -2.4
CCNC(=O)[C@@H]1[C@@H](CO)[C@@H]2Cn3c(ccc(-c4cccc(F)c4)c3=O)[C@@H]2N1C(C)=O | 3 | 11 | -0.1
CCC(=O)N1Cc2cc(C(=O)Nc3nccs3)nc(-c3cccc(-c4ccccc4OC)c3)c2[C@@H]1CCO | -7 | 7 | 0.5
COc1ccc(NC(=O)Nc2ccc3c(c2)C(=O)N([C@@H](C)CO)C[C@H](C)[C@H](CN(C)C(=O)Nc2ccc(OC)cc2)OCCCC[C@H](C)O3)cc1 | -2 | 4 | -0.9
CCCN1C[C@H](C)[C@@H](OC)CN(C)C(=O)c2cc(NC(=O)C3CCOCC3)ccc2OC[C@@H]1C | 3 | -1 | 0.6
COC(=O)C[C@H]1CC[C@@H]2[C@@H](COc3ccc(NC(=O)Nc4ccc(C#N)cc4)cc3C(=O)N2C)O1 | -14 | -27 | 8.8
COc1cccc(NC(=O)N(C)C[C@H]2Oc3cc(C#Cc4ccccc4)ccc3S(=O)(=O)N([C@H](C)CO)C[C@@H]2C)c1 | -3 | 2 | -0.2
COC(=O)c1cc(S(=O)(=O)Nc2cccc(-c3ccno3)c2)c[nH]1 | -6 | -22 | 6.2
C[C@H]1CCCCO[C@H](CN(C)Cc2ccc(C(=O)O)cc2)[C@@H](C)CN([C@@H](C)CO)C(=O)c2cc(NC(=O)Nc3ccc4c(c3)OCO4)ccc2O1 | 0 | 7 | 0.1
C[C@@H]1CN([C@@H](C)CO)C(=O)c2c(c3ccccc3n2C)-c2ccccc2CO[C@@H]1CN(C)S(=O)(=O)c1ccccc1C#N | 1 | 4 | 1.1
C[C@H]1CN([C@@H](C)CO)C(=O)c2cc(NC(=O)Nc3ccc(F)cc3)ccc2O[C@@H]1CN(C)Cc1ccncc1 | -2 | -3 | 2.1
C[C@@H]1CN([C@H](C)CO)C(=O)Cc2cc(NC(=O)c3ccncc3)ccc2O[C@H]1CN(C)Cc1ccc2c(c1)OCO2 | 1 | 4 | 0.1
COc1ccc(C#Cc2ccc([C@@H]3[C@@H](CO)N4CCCCN(C(=O)Nc5ccc(F)cc5)C[C@@H]34)cc2)cc1 | 6 | 8 | -1.0
O=C(Nc1ccc(N2CCOCC2)cc1)c1cccc2c(-c3ccc(F)c(F)c3)coc12 | 9 | 28 | -1.0
C[C@@H](O)C#Cc1ccc([C@H]2[C@H](CO)N3CCCCN(C(=O)c4ccncc4)C[C@@H]23)cc1 | 2 | -1 | -2.5
C[C@H](CO)N1C[C@H](C)[C@H](CN(C)C(=O)c2cccnc2)Oc2cc(C#CC3(O)CCCC3)ccc2S1(=O)=O | 3 | 8 | 0.1
C[C@H](C(=O)N(C)C[C@H]1OCc2ccccc2-c2c(n(C)c3ccccc23)C(=O)N([C@@H](C)CO)C[C@@H]1C)c1ccccc1 | -9 | -4 | 2.2
Cc1ccc(S(=O)(=O)N2C[C@@]3(O)Cn4c(=O)ccc(=O)n4C[C@@]3(OC(=O)NCC3CCCCC3)C2)cc1 | 17 | 19 | 0.4
O=C(Nc1cccc(F)c1)N[C@H]1CC[C@H](CCn2cc(Cc3ccccc3)nn2)O[C@H]1CO | -2 | 5 | -0.7
COc1ccc(S(=O)(=O)N2CC[C@@H]3[C@@H](CO)Nc4ccc(-c5ccc(C#N)cc5)cc4[C@@H]32)cc1 | -6 | -19 | -4.9
COc1cccc(-c2ccc([C@H]3[C@H]4CN(C(=O)NC(C)C)CC(=O)N4[C@H]3CO)cc2)c1 | 2 | 3 | -1.3
COCC(=O)N1CCC2(CC1)CN(C(=O)c1ccccn1)[C@@H](CO)c1c2c2ccc(OC)cc2n1C | 3 | 7 | -2.2
C[C@H]1CN([C@@H](C)CO)C(=O)c2cc(NC(=O)Cc3ccccc3)ccc2O[C@H]1CN(C)C(=O)Nc1ccc2c(c1)OCO2 | -3 | -1 | 0.4

Part of the list above, with values ahead of the structure:
Ecoli rRNA inh | Ecoli rRNA inh OD600 | Ecoli rRNA inh RFP | canonical_smiles
4&-1 | -3&-2 | 3.4&-3.8 | C/C=C/c1ccc(C2[C@@H]3CN(C(=O)NC4CCCCC4)C[C@H]2N3)cc1 (stereo partly specified)
6 | 8 | -1.0 | COc1ccc(C#Cc2ccc([C@@H]3[C@@H](CO)N4CCCCN(C(=O)Nc5ccc(F)cc5)C[C@@H]34)cc2)cc1

(more compounds)
SMILES | Ecoli rRNA inh | Ecoli rRNA inh OD600 | Ecoli rRNA inh RFP
COc1ccc(S(=O)(=O)N(C)C[C@@H]2OCCCC[C@H](C)Oc3ccc(N(C)C)cc3C(=O)N([C@H](C)CO)C[C@@H]2C)cc1 | -6 | -10 | 0.7
CC(C)C#Cc1cnc2c(c1)C(=O)N([C@H](C)CO)C[C@H](C)[C@H](CN(C)C(=O)CC1CC1)O2 | 2 | 8 | -2.9
COc1ccc2c3c([nH]c2c1)[C@H](CO)N(C(=O)CN1CCOCC1)CC31CCN(C(C)=O)CC1 | 5 | 17 | -2.6
O=C(Nc1ccc(Cl)cc1)N[C@@H]1CC[C@H](CCNS(=O)(=O)c2ccccc2F)O[C@@H]1CO | -7&-7 | -14&-21 | 4.0&5.9
COC(=O)[C@]12CCCCC=C1N(Cc1ccccc1)C(=O)[C@H](CC(=O)NCC1CCCCC1)C2 | -20 | -36 | -1.6
O=C(NCC[C@@H]1CC[C@@H](NC(=O)C2CCCCC2)[C@H](CO)O1)c1cnccn1 | -1 | -6 | -0.9
C[C@H](CO)N1C[C@H](C)[C@@H](CN(C)C(=O)Nc2ccc3c(c2)OCO3)Oc2ccc(NS(=O)(=O)c3cccs3)cc2C1=O | -1 | 9 | -2.3
CN1CCN(c2ncnc3c2ncn3[C@H]2CN(Cc3ccc(-c4ccccc4)cc3)C[C@@H](CO)O2)CC1 | 3 | -2 | -1.5
CCCNC(=O)[C@H]1[C@H](CO)[C@H]2Cn3c(ccc(-c4ccncc4)c3=O)[C@H]2N1C(=O)c1ccccc1F | 2 | 2 | 0.5
CCCNC(=O)N1CC2(CN(Cc3ccncc3)C2)c2c(n(C)c3cc(OC)ccc23)[C@H]1CO | 0 | 9 | -1.8

Retrieved one by one from the entries so far (seven):
SMILES | Ecoli rRNA inh | Ecoli rRNA inh OD600 | Ecoli rRNA inh RFP
CN1CCN(c2ncnc3c2ncn3[C@H]2CN(Cc3ccc(-c4ccccc4)cc3)C[C@@H](CO)O2)CC1 | 3 | -2 | -1.5
COc1ccc(S(=O)(=O)N(C)C[C@@H]2OCCCC[C@H](C)Oc3ccc(N(C)C)cc3C(=O)N([C@H](C)CO)C[C@@H]2C)cc1 | -6 | -10 | 0.7
CCCNC(=O)[C@H]1[C@H](CO)[C@H]2Cn3c(ccc(-c4ccncc4)c3=O)[C@H]2N1C(=O)c1ccccc1F | 2 | 2 | 0.5
COC(=O)[C@]12CCCCC=C1N(Cc1ccccc1)C(=O)[C@H](CC(=O)NCC1CCCCC1)C2 | -20 | -36 | -1.6
CCCNC(=O)N1CC2(CN(Cc3ccncc3)C2)c2c(n(C)c3cc(OC)ccc23)[C@H]1CO | 0 | 9 | -1.8
CC(C)C#Cc1cnc2c(c1)C(=O)N([C@H](C)CO)C[C@H](C)[C@H](CN(C)C(=O)CC1CC1)O2 | 2 | 8 | -2.9
O=C(NCC[C@@H]1CC[C@@H](NC(=O)C2CCCCC2)[C@H](CO)O1)c1cnccn1 | -1 | -6 | -0.9

Next section
SMILES | Ecoli rRNA inh | Ecoli rRNA inh OD600 | Ecoli rRNA inh RFP
O=C(C[C@@H]1C=C[C@@H](NC(=O)CC2CC2)[C@@H](CO)O1)NCc1ccc(-c2ccccc2)cc1 | 2 | 5 | -2.4
Cc1ccccc1NC(=O)Nc1ccc2c(c1)C(=O)N(C)[C@@H]1CC[C@@H](CC(=O)O)O[C@H]1CO2 | 4 | 6 | -0.2
COc1ccc(NC(=O)N(C)C[C@H]2OCc3ccccc3-c3ccccc3C(=O)N([C@H](C)CO)C[C@@H]2C)c(OC)c1 | 2 | 4 | -0.9
CC(C)(C)[S@@](=O)N1Cc2cc(C(=O)NCc3ccncc3)nc(-c3cccc(-c4ccncc4)c3)c2[C@H]1CCO | -5 | -9 | 2.9
C[C@H](CO)N1C[C@H](C)[C@H](CN(C)C)Oc2c(NC(=O)Nc3ccc4c(c3)OCO4)cccc2C1=O | 6 | 9 | 0.6
CN(C)c1ncnc2c1nnn2C1OC(CO)C(O)C1O (stereo unspecified) | 24 | 19 | 3.4
CC(C)NC(=O)Nc1ccc2c(c1)C(=O)N([C@@H](C)CO)C[C@H](C)[C@H](CN(C)C(=O)NC1CCCCC1)OCCCC[C@@H](C)O2 | 3 | -3 | 1.1
CCCN1C[C@@H](C)[C@H](OC)CN(C)C(=O)c2ccc(NC(=O)c3ccc4c(c3)OCO4)cc2OC[C@H]1C | -5 | -14 | 2.8

Compound activity (PubChem BioAssay)
